Source: PubChem BioAssay
Rce1 inh – yeast Rce1p protease inhibitors, primary screen, biochemical, fluorescence, cell-free homogeneous | yeast membranes, quenched prenylated peptide cleavage fluorescence | hit rate 0.27% among 290,000 | AID 2563, 2010 | calls only;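 active = fall in fluorescence gain of 50% or more versus controls, with final raw signal at or below 3038400; inconclusive = same 50% fall but final raw signal above 3038400; inactive = fall in fluorescence gain under 50%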;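 note: plate controls were neutral control wells for no effect and wells lacking membranes for full effect; tested at 10 µM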
eIF4H FP inh – human eIF4H binding inhibitors, primary screen, translation initiation inhibitor project, biochemical, uHTS, fluorescence polarization. inhibition, % at 35 µM. eIF4H fluorescence polarization binding assay. hit rate 0.94% among 290,000;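 active = 50% or more with normal probe brightness, or confirmed in later tests; inconclusive = above 50% with abnormal brightness, or retests that disagree; inactive = below 50% or failed in later tests; about a fifth of its hits are not listed in these tables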;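 note: calls also rest on retests at 20 µM and on dose response follow-up; 0% = protein and probe with vehicle and 100% = probe without protein; strong numbers were not always called active; many hits fall short of the cut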
PABP FP inh – PABP poly(A) RNA binding inhibitors, primary screen, biochemical, fluorescence polarization, uHTS | Polyadenylate-binding protein 1 (Homo sapiens), P11940 | inhibition, % at 35 µM | hit rate 1% among 290,000;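 active = 50% or more with normal probe brightness, or confirmed in later tests; inconclusive = above 50% with abnormal brightness, or retests that disagree; inactive = below 50% or failed in later tests; about a fifth of its hits are not listed in these tables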;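 note: calls also rest on retests at 20 µM and on dose response follow-up; controls were probe without protein and protein plus probe with vehicle; some compounds called inactive have numbers as strong as hits; many hits fall short of the cut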
Target sequence (P11940 whole entry, looked up): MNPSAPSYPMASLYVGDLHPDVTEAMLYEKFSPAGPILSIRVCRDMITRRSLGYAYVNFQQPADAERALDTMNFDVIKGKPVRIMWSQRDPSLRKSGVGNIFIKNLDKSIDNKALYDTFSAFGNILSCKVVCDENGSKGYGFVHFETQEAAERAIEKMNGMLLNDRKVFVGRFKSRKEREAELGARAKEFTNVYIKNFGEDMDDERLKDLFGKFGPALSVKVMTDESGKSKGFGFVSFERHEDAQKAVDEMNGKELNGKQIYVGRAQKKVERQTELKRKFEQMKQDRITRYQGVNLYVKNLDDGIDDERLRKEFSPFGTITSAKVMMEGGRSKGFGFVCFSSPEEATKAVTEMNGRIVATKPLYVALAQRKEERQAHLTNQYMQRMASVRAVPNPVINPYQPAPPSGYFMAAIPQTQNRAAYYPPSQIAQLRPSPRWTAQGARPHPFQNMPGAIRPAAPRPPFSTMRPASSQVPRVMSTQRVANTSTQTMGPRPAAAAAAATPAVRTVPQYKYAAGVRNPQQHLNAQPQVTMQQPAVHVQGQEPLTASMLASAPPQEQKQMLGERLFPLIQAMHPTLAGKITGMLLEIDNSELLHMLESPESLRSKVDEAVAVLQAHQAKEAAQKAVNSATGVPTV
CSC inhib – cancer stem cell viability inhibitors, primary screen, luminescence; cancer stem cell-like cells viability; hit rate 1.1% among 300,000; inhibition, % at 7.5 µM;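 active = mean at 75% or more and at least half the replicates too; inconclusive = mean and replicates disagree; tested in HMLE shEcad cells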;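 note: 0% = median of negative and 100% = median of positive control wells; the first replicate is given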
MT1-MMP act inh – blockers of MT1-MMP proenzyme processing, primary screen, HT1080 RFP-PRO-GFP cells, GFP/RFP fluorescence; Matrix metalloproteinase-14 (Homo sapiens), P50281; GFP/RFP ratio fluorescence, overnight; percent of plate control window, DMSO zero; GFP/RFP ratio change, % at 20 µM; hit rate 0.061% among 360,000; AID 651647, 2012;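 active = GFP/RFP ratio change of at least 30% with cell ATP level not reduced by more than half and red fluorescence within 50% of control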; note: strong numbers were not always called active
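Assay system – RFP-PRO-GFP reporter HT1080 cells · Compound dosing – single dose of 20 µM compound, 1% DMSO final · Incubation – overnight compound exposure at 37 °C · Measure – GFP/RFP fluorescence ratio · Benchmarks – DMSO wells and RFP-L50D-GFP cells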
HIV Env fusion – inhibitors of HIV-1 Env-driven cell-cell fusion, primary screen, HeLa-JRFL effector, CEM21 target cells, luciferase. inhibition, % at 12.3 µM. AID 651610, 2012. hit rate 1.1% among 360,000;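 active = mean replicate inhibition score of at least 50 and every replicate individually at or above 50; inconclusive = only one of the two criteria met; inactive = mean below 50 and not all replicates reaching 50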;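 note: 0% = plate neutral controls and 100% = maraviroc near 300 nM; one replicate is shown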
Yeast UUG start – modulators of yeast start codon fidelity, primary screen, whole organism, S. cerevisiae, single point, plate reader. S. cerevisiae UUG-firefly luciferase reporter, luminescence/redox ratio. activity score, % at 18.7 µM. hit rate 0.13% among 350,000. AID 602363, 2012;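 active = replicate mean at a twofold rise or more, about +100% in these data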;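 note: firefly luciferase made from a UUG start codon reports start codon fidelity; reporter light over untreated wells divided by growth signal over untreated wells; some hits fall short of that in this replicate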
eIF4H FP inh retest – further read-out of eIF4H FP inh, marked with its call; inhibition, %; compound at 20 µM; confirmation average;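 mean of two retest wells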
PABP FP inh retest – further read-out of PABP FP inh, marked with its call; inhibition, %; compound at 20 µM; confirmation repeats;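 mean of two retest wells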
MT1-MMP act inh RFP – also measured in MT1-MMP act inh; calls as there; RFP signal change, %; measured here: RFP expression control read;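 0 = vehicle wells; hits needed this value within 50% of zero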
* marks the source's active call; other numbers are inactive results; i = inactive; ? = inconclusive; nt = no result given.

SMILES | Rce1 inh | eIF4H FP inh | PABP FP inh | CSC inhib | MT1-MMP act inh | MT1-MMP act inh RFP | HIV Env fusion | Yeast UUG start | others
CC(=O)c1cc(C)ccc1OC(=O)c1ccncc1 | i | -4 | 2 | -11 | -1 | 6 | 9 | -15
CC1=CCC(C(=O)O)(C(=O)N/N=C/c2cccs2)C(c2ccc([N+](=O)[O-])cc2)C1 (centres undefined) | i | -5 | 8 | 5 | 3 | 11 | -51 | 10
O=C(NCCC1CCCCN1S(=O)(=O)c1ccccc1)C(=O)NCc1ccccn1 (centres undefined) | i | nt | nt | -5 | -1 | -6 | 3 | -6
Cc1ccc(-c2c3c(nc4sc(C(N)=O)c(N)c24)CCCC3)o1 | i | 54 | 10 | -1 | 0 | 0 | -79 | -12 | eIF4H FP inh retest=-14;PABP FP inh retest=8
Fc1ccc(Cn2c(-c3cscn3)nc3ccccc32)c(Cl)c1 | i | -1 | 68 | -2 | 11 | 9 | ? | -17 | eIF4H FP inh retest=-9;PABP FP inh retest=7
O=C1/C(=C/c2ccccc2F)SC(=S)N1CC(=O)N1CCCCC1c1cccnc1 (centres undefined) | i | 2 | 2 | 26 | 0 | 0 | 9 | -18
COc1ccc(OC)c(N(CC(N)=O)S(=O)(=O)c2ccc(OC)c(OC)c2)c1 | i | 2 | 0 | 5 | 2 | 6 | -104 | -5
CCCCCNC(=O)Cc1ccc(S(=O)(=O)N2CCOCC2)s1 | i | nt | nt | -13 | 2 | 6 | -2 | 4
O=C(NCCCN1CCOCC1)c1cnn2c(-c3ccccc3)cc(-c3ccccc3)nc12 | i | -4 | 1 | 1 | 1 | -6 | -23 | -21
Cc1ccc(CNCCNCCO)s1 | i | -4 | 2 | -11 | 1 | 2 | -11 | -10
O=C(NC1CCCc2ccccc21)N[C@@H](Cc1ccccc1)C(=O)O (some centres undefined) | i | 4 | 4 | 1 | -2 | 1 | -33 | 7
CCCN1CCC(=O)N(CCN=[N+]=[N-])CC1 | i | -5 | 30 | -22 | -5 | 1 | -28 | -11
O=C(Nc1ccc2c(c1)OCCO2)NC1(C(F)(F)F)Oc2ccccc2O1 | i | -4 | 6 | 27 | 6 | -3 | 5 | -7
O=C(O)c1ccc2nc(-c3ccccc3)sc2c1 | i | -8 | -5 | 1 | -2 | -4 | 44 | -88
O=C(c1c[nH]c(C(=O)N2CCN(Cc3ccccc3)CC2)c1)C1CCCCC1 | i | -11 | -6 | 17 | -2 | -3 | 1 | nt
CN1CC(c2ccccc2)C2(COc3ccccc3C2=O)C12C(=O)Nc1ccccc12 (centres undefined) | i | -8 | -6 | 6 | -5 | -5 | 108* | 4
Cn1c(=O)c2c(-c3ccccc3)n(C3CCCCC3)cc2n(C)c1=O | i | 9 | -2 | 43 | -8 | -7 | -10 | -10
CC(=O)Nc1ccc(-c2ccnc3c2CC(C)(C(=O)NCc2cccc(Cl)c2)O3)cc1 (centres undefined) | nt | nt | nt | nt | 0 | -3 | 8 | -6
Cc1nc2sc(C(c3cccc(F)c3)N3CCN(C(=O)c4ccco4)CC3)c(O)n2n1 (centres undefined) | i | 10 | 4 | nt | 7 | 5 | -27 | -14
COc1ccccc1NC(=O)CSCc1cc(=O)n2ccsc2n1 | i | 3 | 4 | 4 | 0 | 3 | -39 | -10
CCS(=O)(=O)N1Cc2ccccc2CC1C(=O)Nc1nnc(SCc2c(Cl)cccc2Cl)s1 (centres undefined) | i | 0 | -5 | 34 | 2 | -13 | nt | -14
CC(=O)c1cc(C)ccc1OC(=O)c1cccc2nc(C)oc12 | i | 10 | 4 | 13 | 4 | 3 | nt | -4
CC1CCCCN1CCCNC(=O)c1nn(C)c2c1CSc1ccccc1-2 (centres undefined) | i | -1 | 9 | -1 | -9 | 3 | -7 | -1
CC1=NNC(=O)C1CCC(=O)N/N=C\c1ccccc1[N+](=O)[O-] (centres undefined) | i | 78 | 65 | -7 | -7 | 0 | -26 | -20 | eIF4H FP inh retest=7;PABP FP inh retest=1
Cc1cc(NC(=O)c2sc(Nc3ccc(F)cc3)nc2N)no1 | i | -4 | 12 | -8 | 2 | 0 | -12 | -7
O=C(c1ccc(Cn2cc([N+](=O)[O-])cn2)o1)N1CCCC1 | i | 5 | 0 | nt | 0 | 1 | -3 | -12
CC(C)(C)c1cc(NC(=O)Nc2ccccc2OC(F)(F)F)no1 | i | 4 | -5 | nt | 1 | -10 | -1 | -12
CCN(Cc1cnn(C)c1)C(=O)c1ccc(OC2CCN(S(=O)(=O)N(C)C)CC2)cc1 | i | 6 | 5 | 6 | 3 | 2 | 5 | nt
CC(O)CN1CC(O)=C(c2nc3ccccc3s2)C1=N (centres undefined) | i | 4 | 4 | 14 | 0 | 3 | -11 | -26
CN(C)C(=O)CSc1nnc(-c2cc(-c3cccs3)nc3ccccc23)o1 | i | -10 | 4 | 40 | 0 | 2 | nt | -13
COCCCNC(NC(=O)c1ccc(C)cc1)C(Cl)(Cl)Cl (centres undefined) | i | -8 | -6 | -8 | 0 | 5 | nt | -5
COC(=O)CC1Sc2ccccc2NC1=O (centres undefined) | i | -6 | -6 | -17 | 6 | -1 | -22 | 33
CCOCc1c(C(=O)Nc2ccc(OC)nc2)oc2ccccc12 | nt | 22 | 21 | -12 | 1 | 3 | -2 | 7
O=C(O)c1cc(S(=O)(=O)Nc2cccc(S(=O)(=O)N3CCCC3)c2)ccc1Cl | nt | nt | nt | nt | -2 | 1 | -12 | -12
O=C(OCC1OC(n2cnc3c(N(C(=O)c4ccccc4)C(=O)c4ccccc4)ncnc32)C(O)C1F)c1ccccc1 (centres undefined) | i | -1 | 12 | nt | 2 | 1 | nt | 3
O=C(NNC(=O)C1CCN(c2ncccn2)CC1)c1ccccc1 | i | -1 | -7 | 6 | 0 | 4 | 3 | nt

Overlap with the part before: 2 compounds, then new ones.
SMILES | Rce1 inh | eIF4H FP inh | PABP FP inh | CSC inhib | MT1-MMP act inh | MT1-MMP act inh RFP | HIV Env fusion | Yeast UUG start | others
O=C(OCC1OC(n2cnc3c(N(C(=O)c4ccccc4)C(=O)c4ccccc4)ncnc32)C(O)C1F)c1ccccc1 (centres undefined) | i | -1 | 12 | nt | 2 | 1 | nt | 3
O=C(NNC(=O)C1CCN(c2ncccn2)CC1)c1ccccc1 | i | -1 | -7 | 6 | 0 | 4 | 3 | nt
Cc1nn(-c2ccccc2)c(C)c1NC(=O)COc1ccc(C#N)cc1 | i | 2 | 2 | -9 | 5 | 2 | 14 | 4
NC(=O)CSc1nnc(NC(=O)C2CC(=O)N(c3ccc(F)cc3)C2)s1 (centres undefined) | i | 1 | 3 | -8 | -3 | 5 | 9 | -15
CC1CC(C)CN(S(=O)(=O)c2ccc(C(=O)N(C)Cc3ccccc3)cc2)C1 (centres undefined) | nt | nt | nt | -11 | -2 | -5 | 6 | -5
Cc1cc(C)nc(NNC(=O)NC2CCCCC2)n1 | i | 25 | -2 | -5 | 0 | 6 | -20 | nt
Oc1c(N=NC(=S)Nc2ccccc2F)c2ccccc2n1Cc1cccc(Cl)c1 | i | 0 | 12 | 27 | 6 | -5 | 35 | nt
Cc1ccc(/C=N/n2cnc3sc4c(c3c2=O)CCCC4)o1 | i | 7 | 5 | 14 | 5 | 4 | -60 | -10
CCc1nc2c(OCC(=O)c3ccc(F)cc3)cccn2c1N(C)C(=O)COc1ccccc1 | nt | nt | nt | nt | 15 | 3 | -9 | -18
CC(=O)Nn1c(COc2ccccc2C)nc2ccccc2c1=O | i | -2 | 4 | -11 | 3 | 3 | -146 | -4
Nc1ncnc2c1ncn2[C@@H]1O[C@H](CNCc2cccc(C#Cc3ccccc3)c2)[C@@H](O)[C@H]1O | nt | nt | nt | nt | -6 | 1 | 3 | -13
CC(C)(C)c1ccccc1NC(=O)NC1CCN(Cc2c(F)cccc2Cl)CC1 | i | -8 | 4 | 6 | 5 | 3 | 0 | -6
COc1ccc(C(=O)NCc2n[nH]c(=S)n2-c2ccccc2)cc1OC | i | -6 | 1 | -10 | 4 | 1 | -6 | -23
CCCCOc1ccc(C(=O)N2CCNC(=O)C2CC(=O)OC(C)C)cc1 (centres undefined) | i | -8 | -5 | -16 | 0 | -1 | -10 | 6
CCCCOCCCn1c(-c2ccco2)nc2nc3ccccc3nc21 | i | ? | ? | -33 | -37 | 4 | nt | -9
COc1ccc(-c2noc(CCC(=O)Nc3ccc4c(c3)OCCO4)n2)cc1 | i | -2 | -1 | -3 | 4 | -12 | nt | 4
COc1ccc(CC(=O)Nc2nnc(C(C)C)s2)cc1OC | i | -10 | 0 | -11 | 2 | -4 | 17 | nt
CN(CC(=O)Nc1ccccc1Cl)CC(=O)Nc1cccc2ccccc12 | nt | nt | nt | -10 | -2 | 0 | 2 | -6
CCc1ccccc1NCc1cc(=O)oc2cc(C)ccc12 | i | -15 | 2 | 0 | 0 | 1 | 11 | -19
CCc1ccc(S(=O)(=O)N2CCN(c3ccccc3OC)CC2)cc1 | i | 5 | -4 | -10 | 3 | 4 | 10 | 0
CCOC(=O)CCCCCC(=O)Nc1ccc2c(c1)C(=O)N([C@H](C)CO)C[C@H](C)[C@@H](CN(C)C(=O)Nc1ccccc1)OCCCC[C@@H](C)O2 | nt | nt | nt | nt | 2 | 5 | -29 | -4
CCOC(=O)c1c(C#N)cnn1-c1ccc(C)cc1 | i | -5 | -9 | 4 | -2 | 0 | nt | nt
O=C(CCNC(=O)c1ccc(Br)cc1)NC1CCCc2ccccc21 (centres undefined) | i | nt | nt | 50 | 6 | 1 | 0 | -10
Cc1c(Br)cc(C(=O)NC2CCCCC2)c(C)c1C | i | -3 | 9 | 1 | 4 | -1 | -30 | -21
Cc1cc(C)cc(C(=O)NC(=S)Nc2ccc3c(c2)OCCO3)c1 | i | 8 | -11 | 7 | -3 | -5 | nt | nt
Cc1c(NC(=O)/C=C/c2cn(-c3ccccc3)nc2-c2ccc(F)cc2)c(=O)n(-c2ccccc2)n1C | i | nt | nt | nt | -14 | -8 | -5 | -4
O=C(NCCc1ccccc1)C1CC(=O)N(CCc2ccccc2)C1 (centres undefined) | i | nt | nt | -5 | -1 | 0 | 5 | -7
COCc1cc(C)nc(OCC(=O)N/N=C/c2ccc(-c3cccc([N+](=O)[O-])c3)o2)c1C#N | i | 7 | -10 | -2 | nt | nt | 7 | nt
COC(=O)[C@H](C)NC(=O)Nc1ccc(Oc2ccccc2)cc1 | i | 2 | 2 | -8 | 1 | -2 | nt | -8
COc1cc(OC)c(CN2CCC(Cc3ccccc3)CC2)cc1Br | i | 8 | 2 | 42 | 0 | 0 | -6 | 7
COc1ccc(-c2nc(CS(=O)CC(=O)NCCCN3CCOCC3)c(C)o2)cc1OC (centres undefined) | i | 10 | 11 | -11 | -1 | 0 | 2 | -11
O=C(Cn1nnc(-c2ccncc2)n1)Nc1ccc2c(c1)CCC2 | i | -6 | 2 | 9 | 1 | -8 | 40 | -15
O=C1C(Cc2ccccc2O)NC(=S)N1c1ccccc1 (centres undefined) | i | 1 | 4 | -12 | -3 | 1 | 6 | nt

Some of the compounds tested, so the mix of outcomes need not match the whole.
